# Compound activity (PubChem BioAssay)
# ugtP null kill: growth inhibition of S. aureus ugtP deletion strain; S. aureus RN4220 ugtP deletion, OD600 growth, 16 h; some inactives read as strong as hits; growth inhibition, % (no concentration beside the values); actives 0.54% (n = 330,000);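 active means z-score under -3 and OD600 up to 0.15 on both plates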;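 further: plate controls were untreated wells for no effect and antibiotic for full effect; wells of about 80 µL received 100 nL stock; the first replicate is given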
# RN4220 kill: S. aureus RN4220 growth inhibition | actives 0.33% (n = 330,000) | AID 1259311 | inhibition, % (test concentration not listed) | OD600, 16 h;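 active means z-score of -3 or lower and OD600 up to 0.18 on both plates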;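 further: plate controls were untreated cells for no effect and reference antibiotic for full effect; stock transfer was 100 nL into about 80 µL; one replicate is shown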
# Bead autofluor: counter-screen for toxin protease inhibitors: compound fluorescence | actives 3.1% (n = 360,000) | AID 624483 | compound autofluorescence counterscreen, microsphere flow cytometry; stronger effect = higher value | fluorescence intensity (test concentration not listed);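 active means at least 3 SD above the mean of all compounds, about 16000 in these data; inconclusive means too few beads counted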;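 further: 100 nL of 1 mM stock went into each well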
# PrP UTR inh: inhibition of PrP 5' UTR reporter expression; actives 0.35% (n = 340,000); cell-based PrP 5' UTR mRNA reporter, plate reader; inhibition, % (no concentration beside the values);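 active means every replicate at 50% or more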;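 further: 0 = median of the neutral control wells; tested in H4 reporter cells; numbers are from one replicate; inactives centre near -14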
# BJeLR lethal: kills HRASV12-expressing BJeLR cells. inhibition, % (test concentration not listed). AID 1554. actives 0.17% (n = 300,000). BJeLR (HRASV12) viability, CellTiter-Glo ATP luminescence, 48 h; reference of the scale not given here;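 active means replicate mean above 50%; inconclusive means above 50% but judged a plate artefact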;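 further: 50 nL library stock added to about 25 µL; numbers are from one replicate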
# Mtb hypoxia rep: inhibitors of hypoxia-regulated fluorescent reporter in Mycobacterium tuberculosis; fluorescence inhibition, % (test concentration not listed); actives 0.1% (n = 300,000); M. tuberculosis hypoxia-regulated fluorescent reporter, fluorescence; AID 1159583;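 active means 35 to 45% if threefold the growth effect, above 45% if 1.5-fold the growth effect; inactive means the rest, general growth blockers included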;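 further: wells of about 50 µL received 100 nL stock; 0% = vehicle wells and 100% = reference inhibitor wells; whole bacteria with a GFP reporter of the hypoxia response; strong numbers were not always called active; many hits fall short of the cut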
# Mtb hypoxia rep growth: further read-out of Mtb hypoxia rep, marked with its call; growth inhibition, %; measured here: M. tuberculosis growth (absorbance);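 0% = vehicle and 100% = reference antibiotic; read after six days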
# An asterisk follows results filed as active; ? = inconclusive; . = no result given.
SMILES,ugtP null kill,RN4220 kill,Bead autofluor,PrP UTR inh,BJeLR lethal,Mtb hypoxia rep,Mtb hypoxia rep growth
C#CCSc1nc(N)c2c(n1)OC(N)=C(C#N)C2c1cccnc1 (centres undefined),.,.,2222,-13,8,.,.
CCCN1CCN(c2nc3c([nH]2)c(=N)ncn3CC(O)CO)CC1 (centres undefined),4,3.4,3617,-6,-4,.,.
Cc1nn(-c2ccccc2)c(N)c1N=Nc1ccc(Cl)cc1,16,18,2116,-118,-9,14,14
N/C(=N\OC(=O)/C=C/c1ccccc1Cl)c1cccnc1,7,4.0,4338,.,-1,4,4
CCCCCC(=O)Nc1ccc2oc(-c3cncc(Br)c3)nc2c1,2,0.5,11367,.,-2,6,2
C=CCn1c(COc2ccccc2)nnc1SCC(=O)C(C)(C)C,2,2.6,4697,-19,-1,.,.
O=[N+]([O-])c1nn(-c2ccc3c(c2)OCCO3)n(O)c1=NC1CCCCC1,25,25,9933,-40,6,9,15
NC(N)=N/N=C/c1ccc(OS(=O)(=O)c2ccccc2)cc1,.,.,2161,-35,-4,.,.
CCOC(=O)C1C2COc3ccccc3C2N2C(=O)c3cc(F)ccc3NC(=O)[C@@]12C (some centres undefined),-10,0.9,.,.,.,1,6
Cc1ccc(CN2CCN(Cc3nc4ccccc4nc3C)CC2CCO)cc1 (centres undefined),0,2.4,4605,-22,2,0,9
COc1ccc(/C=N/NC(=O)c2cccc([N+](=O)[O-])c2)cc1OC(=O)c1ccc(C)cc1,.,.,3265,-18,-4,.,.
Clc1ccc(-c2nnc3sc(Cc4cccs4)nn23)cc1,3,8.5,3217,-12,0,7,8
O=C(O)CCCN1C(=O)c2ccc(C(=O)c3cccc([N+](=O)[O-])c3)cc2C1=O,5,1.9,2018,-26,1,9,3
CCC1=NN2C(=N)/C(=C\c3cccn3-c3cccc(Cl)c3)C(=O)N=C2S1,63,76,2514,-26,-12,16,0
O=C(Nc1cnn(C23CC4CC(CC(C4)C2)C3)c1)c1cc(-c2ccccc2)on1,-8,2.7,8698,-6,1,8,6
O=[N+]([O-])c1ccccc1C1Nc2cccc3cccc(c23)N1,-13,-0.7,4194,-5,-2,-89,-15
O=C(CN(c1ccccc1)S(=O)(=O)c1ccccc1)N/N=C/c1ccco1,.,.,2061,-17,3,.,.
COCCNC(=O)C(c1ccc(F)cc1)N(CC1CCCO1)C(=O)CCC(=O)Nc1ccccn1 (centres undefined),1,2.4,2887,-19,.,.,.
O=S(=O)(c1ccc(Cl)cc1)N1CCC(O)(c2cccnc2)CC1,4,5.0,8019,-22,-8,9,10
COc1ccc(C2CC(=O)c3sc(N)nc3C2)cc1 (centres undefined),2,6.2,4561,-9,11,.,.
CC1CCc2[nH]c3ccc(C(=O)O)cc3c2C1 (centres undefined),-4,4.6,3289,-17,-2,-3,4
COC(=O)c1c(NC(=O)COC(=O)CCNS(=O)(=O)c2ccc(NC(C)=O)cc2)sc(C)c1C,-1,0.8,.,-7,9,2,0
O=C(N1CCCC1)N1CCN(S(=O)(=O)c2ccccc2)CC1,0,2.8,3330,-38,-4,-6,3
CC(C)(C)OC(=O)N1Cc2[nH]c3ccccc3c2C[C@@H]1C(=O)O,3,4.1,3831,-15,.,-3,6
O=C(NCc1ccco1)C1Cc2ccccc2CN1C(=O)c1ccco1 (centres undefined),-1,3.2,4687,-2,-2,-1,-1
COCC1CCN(C(=O)CCc2nnc(C3(c4ccc(Cl)cc4)CCC3)o2)CC1,0,3.7,4980,-6,2,-6,-6
CCc1ccc2[nH]c(=O)c(CN(CCN(C)C)C(=S)NCc3ccco3)cc2c1,0,5.9,4921,-3,4,7,1
O=C(NCC1CCCO1)c1ccc(N2C(=O)C3CCCCC3C2=O)cc1 (centres undefined),11,3.4,6135,-53,-8,-2,-1
CCOC(=O)CSc1nc2c(sc(=S)n2-c2ccccc2OC)c(=O)n1Cc1ccco1,-6,-6.0,16526*,0,-4,-9,3
CCOc1nc(CC(C)C)c2c(c1C#N)CC(C)(C)OC2,7,4.7,4624,-53,8,11,-6
Cc1ccc(CN2CCSc3ccc(C(=O)NCCCN4CCN(C)CC4)cc32)cc1,-2,-0.9,5533,-7,11,9,3
CC1=C(C(=O)Nc2nc3ccccc3s2)C(c2ccco2)C(C#N)=C(SCC(=O)NC2CCCCC2)N1 (centres undefined),3,-0.4,2573,-13,6,-9,0
CCCCC[C@H]1CN(CCCC)C(=O)[C@@H]1CC(=O)NCc1ccc(OC)cc1,.,.,3535,-13,-7,.,.
O=C(NCc1ccncc1)C1CCN(C(=O)c2cccc(Cl)c2)CC1,0,2.4,3665,-23,4,4,6
Cn1cc(S(=O)(=O)N2CCN(c3ccccc3F)CC2)c(=O)n(C)c1=O,0,-13,6276,-9,-5,-1,8
O=C(c1ccc2c(c1)OCO2)N1CCCN(C(=O)c2ccc3c(c2)OCO3)CC1,-4,-14,3395,-7,2,7,7
CN(C)c1ccc(C(=O)N2CCN(C(=O)C3CCCO3)CC2)cc1 (centres undefined),1,2.0,3992,-12,.,7,6
O=C(COc1ccc2c3c(c(=O)oc2c1)CCC3)NC1CCN(Cc2ccccc2)CC1,8,2.4,4877,8,-4,5,10
Cc1oc(-c2cccc(Cl)c2)nc1CS(=O)(=O)CC(=O)NC1CCCC1,0,-2.5,5890,-12,-6,9,16
COc1ccc(CNC(=O)C2(CC3CC(c4ccccc4)=NO3)CCN(C(=O)C3CCCC3)CC2)cc1 (centres undefined),4,5.9,3548,-11,-4,-2,4

# A section from further up, for reference:
SMILES,ugtP null kill,RN4220 kill,Bead autofluor,PrP UTR inh,BJeLR lethal,Mtb hypoxia rep,Mtb hypoxia rep growth
Cn1cc(S(=O)(=O)N2CCN(c3ccccc3F)CC2)c(=O)n(C)c1=O,0,-13,6276,-9,-5,-1,8
O=C(c1ccc2c(c1)OCO2)N1CCCN(C(=O)c2ccc3c(c2)OCO3)CC1,-4,-14,3395,-7,2,7,7
CN(C)c1ccc(C(=O)N2CCN(C(=O)C3CCCO3)CC2)cc1 (centres undefined),1,2.0,3992,-12,.,7,6
O=C(COc1ccc2c3c(c(=O)oc2c1)CCC3)NC1CCN(Cc2ccccc2)CC1,8,2.4,4877,8,-4,5,10
Cc1oc(-c2cccc(Cl)c2)nc1CS(=O)(=O)CC(=O)NC1CCCC1,0,-2.5,5890,-12,-6,9,16
COc1ccc(CNC(=O)C2(CC3CC(c4ccccc4)=NO3)CCN(C(=O)C3CCCC3)CC2)cc1 (centres undefined),4,5.9,3548,-11,-4,-2,4

# (next part)
SMILES,ugtP null kill,RN4220 kill,Bead autofluor,PrP UTR inh,BJeLR lethal,Mtb hypoxia rep,Mtb hypoxia rep growth
N#Cc1c(Cl)nc(Cl)c2c1CCN(Cc1ccccc1)C2,.,.,3547,-10,13,.,.
CCOC(=O)C1=C(CC)NC2=C(C(=O)CCC2)C1c1ccc(OC)c(OC)c1 (centres undefined),4,1.9,2932,-19,-10,.,.
O=C(c1cccc(NS(=O)(=O)c2cccc([N+](=O)[O-])c2)c1)N1CCOCC1,3,0.6,2821,-19,-1,-6,10
O=c1cc(-c2ccc([N+](=O)[O-])cc2)nc2cc(-c3ccc(F)cc3)[nH]n12,-5,-4.7,2147,-3,3,-4,4
Cn1nc(C(=O)N2CCc3ccccc3C2)c2ccccc2c1=O,-3,-4.4,2624,-15,0,.,.
COc1ccc(NC(=O)CCS(=O)(=O)c2ccc(Cl)cc2)cc1,0,5.5,3659,-10,-7,5,8
Cc1ccc(-n2[nH]c(C)c(C=Nc3cccc(C)n3)c2=O)cc1,8,2.9,.,.,.,14,1
COc1ccc(-c2sc3ccc(N4CCOCC4)cc3c2C#CCO)cc1,2,0.2,4112,-22,.,16,8
CCOc1ccccc1N(C(=O)c1ccccc1Cl)C1=NC(C)(C)CS1,5,9.4,3929,9,-13,4,4
CC(=O)c1ccc(OC(=O)CN2C(=O)c3ccccc3C2=O)cc1,3,3.5,3617,-13,-3,10,2
C[C@H](CO)N1C[C@H](C)[C@@H](CN(C)S(=O)(=O)c2ccc(F)cc2)Oc2c(NC(=O)Nc3ccc4c(c3)OCO4)cccc2C1=O,17,31,4014,-13,.,-8,2
O=C(Oc1ccc2ccc(=O)oc2c1)c1ccco1,0,2.7,5234,-14,2,0,5
C=CCn1c(C)cc(C(=O)COC(=O)c2cncc(Br)c2)c1C,3,2.4,3583,-111,.,5,0
Cc1cc(C)cc(C(=O)OCC(=O)NCc2cccs2)c1,3,-8.1,2131,-12,-1,-3,6
O=C(O)C1NCCc2ccccc21 (centres undefined),6,5.0,10298,-37,-4,5,5
COc1cc(OC)c(C=NNC(=O)c2ccncc2)cc1Br,0,-2.6,.,.,.,.,.
COCc1ccc(C(=O)N2CCCC(Nc3ccc4c(c3)OCCO4)C2)o1 (centres undefined),0,-1.3,5430,-21,6,3,14
CCOc1ccc(S(=O)(=O)N(CC(=O)NC2CCCCC2C)Cc2ccco2)cc1 (centres undefined),9,6.9,8116,24,12,-3,1
COc1ccc(C=NNC(=O)CCn2nc(C)cc2C)cc1O,3,6.5,.,.,.,3,-1
O=C(NCc1cccs1)C1CCCN1S(=O)(=O)c1ccccc1F (centres undefined),-1,3.8,19819*,-7,0,0,7

# Continued; it opens with the two that closed the last part.
SMILES,ugtP null kill,RN4220 kill,Bead autofluor,PrP UTR inh,BJeLR lethal,Mtb hypoxia rep,Mtb hypoxia rep growth
COc1ccc(C=NNC(=O)CCn2nc(C)cc2C)cc1O,3,6.5,.,.,.,3,-1
O=C(NCc1cccs1)C1CCCN1S(=O)(=O)c1ccccc1F (centres undefined),-1,3.8,19819*,-7,0,0,7
COc1cccc(C(=O)Nc2ccc3c(C)cc(=O)oc3c2)c1,11,3.2,5933,-87,-2,14,8
CCOC(=O)C1CCN(Cc2ccc(OCc3ccccc3)cc2)CC1,13,3.3,3244,-7,-2,5,7
COc1ccc(S(=O)(=O)n2cnc3ccccc32)cc1,11,1.4,3383,-28,1,6,5
C/C=C/c1ccc(OCC(=O)N(C)CC(=O)Nc2ccc(F)cc2)c(OC)c1,.,.,?,1,-2,.,.
O=C(O)CSc1nc2sc3c(c2c(=O)n1-c1ccccc1)CCC3,7,1.0,4819,0,3,4,-3
CCOC(=O)CCC(NC(=O)CCC(=O)NC(CCC(=O)OCC)C(=O)OCC)C(=O)OCC (centres undefined),4,4.5,2178,-20,-6,7,1
Cn1c(CN2CCOCC2)nc2cc(NC(=O)c3ccccc3Cl)ccc21,-3,1.1,6619,-3,1,2,11
Cc1ccc(NC(=O)c2cc([N+](=O)[O-])ccc2N2CCCC2)cc1,0,4.7,2692,-27,-1,8,2
O=C(Nc1ccc(Cl)cc1)OC1CN2CCC1CC2 (centres undefined),-5,0.7,3817,-45,4,5,2
CCN(CC(=O)Nc1ccc(NC(C)=O)cc1)C(=O)c1ccccc1SCC(=O)N1CCCC1,2,3.2,8734,-34,.,0,1
O=C(/C(=C/c1ccccc1)n1cncn1)c1ccc(Cl)cc1Cl,-10,1.1,2756,-9,5,2,2
CCN1C(=O)/C(=C/c2ccc(N3CCCC3)cc2)NC1=S,-18,2.8,8291,-38,-1,2,0
Cc1nc2ccc(NC(=O)CSc3ccccc3)cc2s1,9,4.3,6370,-37,.,10,2
COc1ccc(C/C(O)=C(\C#N)c2nc3ccccc3[nH]2)cc1OC,.,.,2187,-13,3,.,.
O=C(CN1C(=O)CSc2ccc(S(=O)(=O)N3CCCCCC3)cc21)NCCc1ccccc1,-17,0.2,3946,-23,.,6,6
Cc1ccc(C(C(=O)NC2CCCC2)N(C(=O)CNC(=O)c2cccs2)c2cccnc2)o1 (centres undefined),5,2.3,10393,-6,-10,5,3
COC(=O)c1cccc2nc3c(C(C)O)cccc3nc12 (centres undefined),4,0.7,4165,-17,-3,.,.
CCOC(=O)c1c(C)sc2c1N(C(=O)CN(CC)CC)c1ccccc1S2,-2,4.7,3689,-14,6,4,11
CC(=O)N1CCC(C(=O)Nc2ccc(S(=O)(=O)N3CCCC(C)C3)cc2)CC1 (centres undefined),4,2.4,?,-6,.,-4,-1
COc1ccc(N(C)S(=O)(=O)c2cccc(C(=O)NCC3CCCCC3)c2)cc1,7,-3.3,3950,-25,-25,10,8
O=C(Nc1cccc(-n2cnnn2)c1)c1ccc(C(F)(F)F)cc1,-4,1.3,3794,2,.,1,11
CC(=O)N1CCC[C@H]1C(=O)O,-1,2.8,4775,-19,-2,3,4
COC(=O)c1ccc(CSc2nnc(-c3c[nH]c4ccccc34)n2-c2ccccc2)cc1,-10,-4.8,2592,-21,-4,6,10
O=C(Nc1ccccc1)C1CCN(S(=O)(=O)c2cccs2)CC1,1,1.5,8563,-2,.,0,3
